Assay outcomes from PubChem.
FGF22 binding: binders of recombinant human FGF22 by thermal shift. Q9HCT0. SYPRO orange fluorescence; percent of sucrose octasulfate shift, DMSO zero. calls only at 9.99 µM. 340,000 tested, 1.5% active. AID 651658;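 active = melting point raised past a set limit in the mean and every replicate; three in four hits are not shown here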
Target sequence (Q9HCT0 whole entry, looked up): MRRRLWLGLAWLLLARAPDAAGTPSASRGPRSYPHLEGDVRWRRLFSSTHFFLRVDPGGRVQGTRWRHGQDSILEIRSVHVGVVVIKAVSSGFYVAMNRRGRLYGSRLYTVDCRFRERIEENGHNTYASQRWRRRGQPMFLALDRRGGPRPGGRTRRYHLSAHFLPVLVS
Calls only; i = inactive; + = active, no number. Some of the compounds tested (hit frequency here may not be typical).

cpd	Molecule	FGF22 binding
1	C[C@@H]1CCCCO[C@H](CN(C)Cc2ccc(C(F)(F)F)cc2)[C@@H](C)CN([C@H](C)CO)C(=O)c2cc(NC(=O)c3ccncc3)ccc2O1	i
2	CCCNC(=O)Nc1ccc2c(c1)C(=O)N(C)[C@@H]1CC[C@@H](CC(=O)NC3CCC3)O[C@H]1CO2	i
3	C[C@@H]1CN([C@H](C)CO)C(=O)c2cc(C3=CCCC3)cnc2O[C@@H]1CN(C)C(=O)C1CCCCC1	i
4	O=C(Nc1cccc(F)c1)N1C[C@H]2[C@@H](c3ccccc31)[C@H](CO)N2C(=O)c1cccnc1	i
5	C[C@@H](O)C#Cc1cnc2c(c1)C(=O)N([C@@H](C)CO)C[C@H](C)[C@@H](CN(C)C(=O)Nc1ccc(C(F)(F)F)cc1)O2	i
6	COc1ccc2c3c([nH]c2c1)[C@H](CO)N(C(C)=O)CC31CN(C(C)=O)C1	i
7	O=C1C2C=C(I)[C@H](C[C@@H]2OCCCCCCO)[C@@]12CO2	i
8	Cc1noc(C)c1NC(=O)Nc1ccc2c(c1)C(=O)N([C@H](C)CO)C[C@@H](C)[C@@H](CN(C)C)OCCCC[C@@H](C)O2	i
9	C[C@@H]1CN([C@@H](C)CO)C(=O)c2cc(NC(=O)C3CC3)ccc2O[C@@H]1CN(C)C	i
10	CN(C)CC(=O)N1[C@H](CO)[C@H](c2ccccc2)C12CN(CCC(F)(F)F)C2	i
11	CC(C)NC(=O)N(C)C[C@@H]1Oc2ccc(NC(=O)C3CCCCC3)cc2C(=O)N([C@@H](C)CO)C[C@@H]1C	i
12	C[C@H]1CN([C@@H](C)CO)C(=O)c2cc(NC(=O)CCC(F)(F)F)ccc2O[C@H]1CN(C)C(=O)Nc1ccccc1	i
13	CCNC(=O)[C@@H]1[C@@H](CO)[C@@H]2Cn3c(cccc3=O)[C@@H]2N1Cc1cccc(F)c1	i
14	O=C(c1cccc(F)c1)N1CC[C@@H]2[C@@H](CO)Nc3ccc(-c4ccccc4F)cc3[C@@H]21	i
15	C[C@@H]1CN([C@H](C)CO)C(=O)Cc2cc(NC(=O)Cc3ccccc3)ccc2O[C@H]1CN(C)S(=O)(=O)c1ccc(Cl)cc1	i
16	CCCC#Cc1ccc([C@@H]2[C@@H](CO)N3CCCCN(S(=O)(=O)c4ccccc4F)C[C@H]23)cc1	i
17	CNC[C@@H]1Oc2c(NC(=O)Nc3cccc4ccccc34)cccc2C(=O)N([C@@H](C)CO)C[C@H]1C	i
18	C[C@@H]1CN([C@@H](C)CO)C(=O)c2cc(NC(=O)Nc3ccc(C(F)(F)F)cc3)ccc2O[C@H]1CN(C)S(=O)(=O)c1ccc(F)cc1	i
19	COc1ccccc1S(=O)(=O)N(C)C[C@H]1Oc2cc(C#CCC3CCCC3)ccc2S(=O)(=O)N([C@@H](C)CO)C[C@@H]1C	i
20	O=C(C[C@H]1C[C@H]2c3cc(NC(=O)c4cccnc4)ccc3O[C@H]2[C@H](CO)O1)NCCc1ccccc1	i
21	COc1ccc(NC(=O)Nc2ccc3c(c2)CC(=O)N([C@@H](C)CO)C[C@@H](C)[C@@H](CN(C)S(C)(=O)=O)O3)cc1	i
22	N#C[C@@H]1[C@@H](c2ccc(-c3ccccc3F)cc2)[C@H](CO)N1C(=O)C1CCC1	i
23	CCCc1cn(CC[C@H]2CC[C@H](NC(=O)C3CCCCC3)[C@H](CO)O2)nn1	i
24	CC(C)C#Cc1cnc2c(c1)C(=O)N([C@@H](C)CO)C[C@@H](C)[C@@H](CN(C)S(=O)(=O)c1cn(C)cn1)O2	i
25	CC(C)NC(=O)N(C)C[C@H]1OCCCC[C@H](C)Oc2ccc(NC(=O)C3CCCCC3)cc2C(=O)N([C@@H](C)CO)C[C@H]1C	i
26	CNC[C@H]1Oc2ccc(NS(=O)(=O)c3ccc(Cl)cc3)cc2C(=O)N([C@@H](C)CO)C[C@@H]1C	i
27	C[C@@H]1CN([C@H](C)CO)C(=O)c2cc(NS(=O)(=O)c3ccc(F)cc3)ccc2O[C@@H]1CN(C)C(=O)Nc1ccccc1	i
28	C[C@H]1CN([C@@H](C)CO)C(=O)Cc2cc(NC(=O)Cn3cnnn3)ccc2O[C@H]1CN(C)CC1CC1	i
29	C[C@@H]1CN([C@@H](C)CO)C(=O)c2cc(NS(C)(=O)=O)ccc2O[C@@H](C)CCCCO[C@H]1CN(C)C(=O)CCC(F)(F)F	i
30	C[C@H](NC(=O)C[C@@H]1C=C[C@H](NC(=O)C2CCC2)[C@@H](CO)O1)c1ccccc1	i
31	CC(C)C#Cc1ccc([C@H]2[C@H]3CN(S(=O)(=O)c4ccccc4)CC(=O)N3[C@H]2CO)cc1	i
32	COCC#Cc1ccc2c(c1)O[C@@H](CN(C)C(=O)NC(C)C)[C@H](C)CN([C@@H](C)CO)S2(=O)=O	i
33	COc1cccc(C#Cc2ccc([C@@H]3[C@@H](C#N)N[C@@H]3CO)cc2)c1	i
34	CO[C@@H]1CC[C@H]2CCN(C)C(=O)CCCN(C)C(=O)c3cc(C#N)ccc3OC[C@@H]1O2	i
35	O=C([C@@H]1[C@@H](CO)[C@@H]2Cn3c(cccc3=O)[C@H]1N2CC1CCCC1)N1CCc2ccccc2C1	i
36	COCC(=O)N(C)C[C@@H]1Oc2cc(-c3cccnc3)ccc2S(=O)(=O)N([C@@H](C)CO)C[C@@H]1C	i
37	CCCNC(=O)Nc1ccc2c(c1)OC[C@H](C)N(CCC(F)(F)F)C[C@@H](C)[C@@H](OC)CN(C)C2=O	i
38	NC(=O)NCC#Cc1ccc2c(c1)[C@]1(C(=O)N2)[C@H](c2ccc(O)cc2)N2[C@H](c3ccccc3)[C@H](c3ccccc3)OC(=O)[C@H]2[C@@H]1C(N)=O	i
39	COCC(=O)N1[C@@H](C#N)[C@H](c2ccc(C#Cc3ccccc3F)cc2)[C@@H]1CO	i
40	CO[C@H]1CN(C)C(=O)c2cc(NS(=O)(=O)c3ccc(Oc4ccccc4)cc3)ccc2OC[C@H](C)NC[C@@H]1C	i
41	CC(C)NC(=O)N(C)C[C@H]1Oc2ccc(NC(=O)NC3CCCCC3)cc2C(=O)N([C@H](C)CO)C[C@H]1C	i
42	C[C@@H]1CCCCO[C@H](CN(C)CC2CC2)[C@H](C)CN([C@H](C)CO)C(=O)c2cc(NS(=O)(=O)c3ccccc3)ccc2O1	i
43	C[C@@H]1CN([C@@H](C)CO)C(=O)CCCn2cc(nn2)CO[C@@H]1CN(C)S(=O)(=O)c1ccc2c(c1)OCCCO2	i
44	C[C@@H]1CN([C@H](C)CO)C(=O)c2cc(NC(=O)CCC(F)(F)F)ccc2O[C@H]1CN(C)Cc1ccc(C(=O)O)cc1	i
45	CC(C)NC(=O)N(C)C[C@@H]1Oc2ccc(NC(=O)Nc3ccc(F)cc3)cc2C(=O)N([C@H](C)CO)C[C@H]1C	i
46	COc1ccc(NC(=O)N[C@@H]2C=C[C@@H](CC(=O)NC3CCC3)O[C@@H]2CO)cc1	i
47	COc1ccc(NC(=O)Nc2ccc3c(c2)CC(=O)N([C@H](C)CO)C[C@@H](C)[C@H](CN(C)Cc2ccc(C(F)(F)F)cc2)O3)cc1	i
48	CCC(=O)N1CCC2(CC1)CN(S(C)(=O)=O)[C@H](CO)c1c2c2ccc(OC)cc2n1C	i
49	COc1ccc2c3c([nH]c2c1)[C@@H](CO)N(S(C)(=O)=O)CC31CCN(CC2CCCCC2)CC1	i
50	CCS(=O)(=O)N1Cc2cc(C(=O)O)nc(-c3cccc(-c4ccc(C#N)cc4)c3)c2[C@H]1CCO	i

A second format for part of the listing above:
#	FGF22 binding	SMILES
39	i	COCC(=O)N1[C@@H](C#N)[C@H](c2ccc(C#Cc3ccccc3F)cc2)[C@@H]1CO
42	i	C[C@@H]1CCCCO[C@H](CN(C)CC2CC2)[C@H](C)CN([C@H](C)CO)C(=O)c2cc(NS(=O)(=O)c3ccccc3)ccc2O1

Gathered by group: the compounds so far with a Cl atom.
cpd	Molecule	FGF22 binding
15	C[C@@H]1CN([C@H](C)CO)C(=O)Cc2cc(NC(=O)Cc3ccccc3)ccc2O[C@H]1CN(C)S(=O)(=O)c1ccc(Cl)cc1	i
26	CNC[C@H]1Oc2ccc(NS(=O)(=O)c3ccc(Cl)cc3)cc2C(=O)N([C@@H](C)CO)C[C@@H]1C	i

Later entries
No. | SMILES | FGF22 binding
51 | CCCNC(=O)N1C[C@H]2[C@@H](c3ccccc31)[C@@H](CO)N2Cc1cccc(OC)c1 | i
52 | COc1ccc(S(=O)(=O)Nc2ccc3c(c2)C(=O)N([C@H](C)CO)C[C@@H](C)[C@@H](CN(C)S(=O)(=O)c2cccs2)O3)cc1 | i
53 | O=C(C[C@H]1CC[C@H]2[C@@H](COC[C@H](O)CN2C(=O)c2ccccc2)O1)NCCCN1CCOCC1 | i
54 | C[C@@H]1CCCCO[C@@H](CN(C)C(=O)Nc2ccc(C(F)(F)F)cc2)[C@H](C)CN([C@@H](C)CO)C(=O)c2cc(NC(=O)Nc3cccc4ccccc34)ccc2O1 | i
55 | COC(=O)C[C@@H]1CC[C@H]2[C@H](COc3ccc(NC(=O)Nc4ccccc4C)cc3C(=O)N2C)O1 | i
56 | C[C@H]1CN([C@@H](C)CO)C(=O)c2cccc(NC(=O)C3CC3)c2O[C@@H]1CN(C)Cc1ccc(C(=O)O)cc1 | i
57 | O=C(CN1CCOCC1)N1[C@H](CO)[C@@H]2c3ccccc3NC[C@@H]21 | i
58 | C[C@@H]1CCCCO[C@@H](CN(C)CC2CC2)[C@H](C)CN([C@@H](C)CO)C(=O)c2cc(NC(=O)Nc3ccc(F)cc3)ccc2O1 | i
59 | O=C(C[C@H]1CC[C@@H]2[C@H](COC[C@H](O)CN2Cc2ccc(Oc3ccccc3)cc2)O1)N1CCCCC1 | i
60 | Cc1ccccc1-c1cnc2c(c1)C(=O)N([C@H](C)CO)C[C@H](C)[C@H](CN(C)Cc1ccncc1)O2 | i
61 | COc1ccc(C#Cc2cnc3c(c2)C(=O)N([C@@H](C)CO)C[C@H](C)[C@@H](CN(C)C(=O)CN(C)C)O3)cc1 | i
62 | C[C@@H]1CN([C@H](C)CO)C(=O)c2cccc(NC(=O)Nc3ccc4c(c3)OCO4)c2O[C@H]1CN(C)Cc1ccc(C(=O)Nc2ccccc2N)cc1 | i
63 | CCCNC(=O)N1CC2(CCN(S(=O)(=O)CC)CC2)c2c(n(C)c3cc(OC)ccc23)[C@@H]1CO | i
64 | CNC(=O)C[C@@H]1CC[C@@H]2[C@@H](COc3ccc(NS(=O)(=O)c4ccccc4C)cc3C(=O)N2C)O1 | +
65 | CC(=O)N1[C@H](CO)[C@H](c2ccccc2)[C@@H]1CN(C(=O)c1cccc(F)c1)C(C)C | i
66 | O=C(N[C@H]1CC[C@@H](CCNS(=O)(=O)c2ccccc2)O[C@@H]1CO)c1cnccn1 | i
67 | C[C@@H]1CCCCO[C@@H](CN(C)Cc2ccncc2)[C@H](C)CN([C@@H](C)CO)C(=O)c2cc(NC(=O)NC3CCCCC3)ccc2O1 | i
68 | COc1ccc(NC(=O)Nc2ccc3c(c2)CC(=O)N([C@@H](C)CO)C[C@H](C)[C@@H](CN(C)C(=O)Nc2c(C)noc2C)O3)cc1 | i
69 | C[C@@H]1CCCCO[C@H](CN(C)S(C)(=O)=O)[C@H](C)CN([C@@H](C)CO)C(=O)c2cc(NS(=O)(=O)c3ccc(F)cc3)ccc2O1 | i
70 | O=C(C[C@H]1C=C[C@@H](NC(=O)Nc2ccc3c(c2)OCO3)[C@H](CO)O1)NCc1ccc(F)cc1 | i
71 | CC(C)NC(=O)N(C)C[C@@H]1Oc2ccc(NC(=O)CCCCCC(=O)Nc3ccccc3N)cc2C(=O)N([C@@H](C)CO)C[C@@H]1C | i
72 | CCCNC(=O)C[C@H]1CC[C@@H]2[C@@H](COc3ccc(NC(=O)CC)cc3C(=O)N2C)O1 | i
73 | O=C(C[C@H]1C=C[C@H](NS(=O)(=O)c2ccccc2)[C@@H](CO)O1)NCc1ccccc1F | i
74 | COCC(=O)N1CC[C@H]2[C@@H]1c1cc(-c3cccc(F)c3)ccc1N(C)[C@H]2CO | i

FGF22 binding, entries above that show a hit.
No. | SMILES | FGF22 binding
64 | CNC(=O)C[C@@H]1CC[C@@H]2[C@@H](COc3ccc(NS(=O)(=O)c4ccccc4C)cc3C(=O)N2C)O1 | +

Going on with the list:
No. | SMILES | FGF22 binding
75 | C[C@H]1CN([C@@H](C)CO)C(=O)c2cc(NC(=O)CCCN(C)C)ccc2O[C@H]1CN(C)S(C)(=O)=O | i
76 | CNC(=O)C[C@H]1CC[C@H]2[C@@H](COc3ccc(NC(=O)NC(C)C)cc3C(=O)N2C)O1 | i
77 | O=C(O)C[C@H]1C[C@@H]2c3cc(NC(=O)c4cccnc4)ccc3O[C@@H]2[C@H](CO)O1 | i
78 | CNC(=O)C[C@@H]1CC[C@@H]2[C@H](COC[C@@H](O)CN2Cc2ccccc2F)O1 | i
79 | N#C[C@H]1[C@@H](c2ccc(C3=CCCC3)cc2)[C@@H](CO)N1C(=O)c1ccccn1 | i
80 | COC(=O)C1=C(C)N(Cc2ccccc2C(F)(F)F)C(=NCc2ccc(C(F)(F)F)cc2)NC1c1cccc(C(F)(F)F)c1 (stereo not drawn) | i
81 | O=C(C[C@H]1C=C[C@H](NC(=O)c2cccc(F)c2)[C@H](CO)O1)Nc1nccs1 | i
82 | CN(C)CC(=O)N[C@H]1C=C[C@@H](CC(=O)NCc2ccccc2F)O[C@@H]1CO | i
83 | C[C@H]1CN([C@@H](C)CO)C(=O)Cc2cc(NC(=O)C3CC3)ccc2O[C@@H]1CN(C)S(=O)(=O)c1ccc(Cl)cc1 | i
84 | C[C@@H]1CN([C@@H](C)CO)C(=O)c2ccccc2-c2ccccc2CO[C@H]1CN(C)C(=O)CCC(F)(F)F | i
85 | COc1ccc2c3c(n(C)c2c1)[C@@H](CO)N(Cc1ccncc1)CC31CCN(C(=O)Cc2ccncc2)CC1 | i
86 | CN(C)C(=O)c1ccc(-c2ccc3c(c2)[C@H]2[C@H](CCN2C(=O)c2ccccn2)[C@H](CO)N3)cc1 | i
